# PABP polyA inh – PABP-poly(A) binding inhibition. inhibition, % at 35 µM. AID 2014. PABP-poly(A) RNA binding, fluorescence polarization. hit rate 1% among 290,000. P11940;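 active means 50% or more with normal probe brightness, or confirmed in later tests; inconclusive means above 50% with abnormal brightness, or retests that disagree; inactive means below 50% or failed in later tests; about a fifth of its hits are not listed in these tables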;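 further: calls also rest on retests at 20 µM and on dose response follow-up; controls were probe without protein and protein plus probe with vehicle; some compounds called inactive have numbers as strong as hits; many hits fall short of the cut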
# Rce1 inh – inhibitors of yeast Ras-converting enzyme; Q03530; yeast membranes, quenched prenylated peptide cleavage fluorescence; calls only; hit rate 0.27% among 290,000;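 active means fall in fluorescence gain of 50% or more versus controls, with final raw signal at or below 3038400; inconclusive means same 50% fall but final raw signal above 3038400; inactive means fall in fluorescence gain under 50%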;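 further: plate controls were neutral control wells for no effect and wells lacking membranes for full effect; tested at 10 µM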
# Target sequence (Q03530 whole entry, looked up): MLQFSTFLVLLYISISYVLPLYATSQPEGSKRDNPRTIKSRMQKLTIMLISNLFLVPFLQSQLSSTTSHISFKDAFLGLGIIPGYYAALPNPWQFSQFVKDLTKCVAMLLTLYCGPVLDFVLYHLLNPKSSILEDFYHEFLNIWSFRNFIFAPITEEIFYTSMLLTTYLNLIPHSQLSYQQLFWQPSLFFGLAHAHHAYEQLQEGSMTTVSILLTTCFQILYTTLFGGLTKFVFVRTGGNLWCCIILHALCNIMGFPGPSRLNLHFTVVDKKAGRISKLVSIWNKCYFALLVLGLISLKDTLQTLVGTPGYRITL
# CSC inhib – blocks cancer stem cells; cancer stem cell-like cells viability, luminescence; inhibition, % at 7.5 µM; hit rate 1.1% among 300,000; AID 2717;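 active means mean at 75% or more and at least half the replicates too; inconclusive means mean and replicates disagree; tested in HMLE shEcad cells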;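 further: 0% = median of negative and 100% = median of positive control wells; the first replicate is given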
# eIF4H FP inh – inhibitors of RNA binding by human eIF4H; Q15056; eIF4H fluorescence polarization binding assay; inhibition, % at 35 µM; hit rate 0.94% among 290,000;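 active means 50% or more with normal probe brightness, or confirmed in later tests; inconclusive means above 50% with abnormal brightness, or retests that disagree; inactive means below 50% or failed in later tests; about a fifth of its hits are not listed in these tables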;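 further: calls also rest on retests at 20 µM and on dose response follow-up; 0% = protein and probe with vehicle and 100% = probe without protein; strong numbers were not always called active; many hits fall short of the cut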
# Env fusion inh – HIV envelope-mediated fusion inhibition; inhibition, % at 12.3 µM; hit rate 1.1% among 360,000; HeLa-JRFL Env/CEM21 cell fusion, luciferase;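 active means mean replicate inhibition score of at least 50 and every replicate individually at or above 50; inconclusive means only one of the two criteria met; inactive means mean below 50 and not all replicates reaching 50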;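 further: 0% = plate neutral controls and 100% = maraviroc near 300 nM; one replicate is shown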
# MT1-MMP act inh – blocks activation of human MT1-MMP. P50281. HT1080 RFP-PRO-GFP cells, GFP/RFP ratio fluorescence, overnight; percent of plate control window, DMSO zero. GFP/RFP ratio change, % at 20 µM. hit rate 0.061% among 360,000;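 active means GFP/RFP ratio change of at least 30% with cell ATP level not reduced by more than half and red fluorescence within 50% of control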; further: strong numbers were not always called active
#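 Assay system: HT1080 cells carrying an RFP-PRO-GFP reporter | Dosing: Single dose of 20 µM compound, 1% DMSO final | Incubation: Cells overnight before dosing, compound overnight, 37 °C, 5% CO2 | Evaluation: GFP/RFP fluorescence ratio | Control set: DMSO and RFP-L50D-GFP cell wells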
# Yeast UUG start – modulators of start codon recognition fidelity in yeast; activity score, % at 18.7 µM; AID 602363; S. cerevisiae UUG-firefly luciferase reporter, luminescence/redox ratio; hit rate 0.13% among 350,000;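 active means replicate mean at a twofold rise or more, about +100% in these data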;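 further: firefly luciferase made from a UUG start codon reports start codon fidelity; reporter light over untreated wells divided by growth signal over untreated wells; some hits fall short of that in this replicate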
# MT1-MMP act inh RFP – second read-out of MT1-MMP act inh, no call of its own (marks repeat the call); RFP signal change, %; measured here: RFP expression control read;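 0 = vehicle wells; hits needed this value within 50% of zero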
# Starred values were filed as active, the others as inactive; i = inactive; u = inconclusive; x = no result given; & = joins results of further samples. A portion of the library; rates above refer to the full screens.
Molecule,PABP polyA inh,eIF4H FP inh,Rce1 inh,Env fusion inh,CSC inhib,MT1-MMP act inh,MT1-MMP act inh RFP,Yeast UUG start
C[C@@]12C(=O)Nc3cc(Cl)ccc3C(=O)N1[C@H]1c3cc(Br)ccc3OC[C@@H]1[C@@H]2c1ccccc1,x,x,x,-5.3,-3.7,-25.8,-15.6,-6.1
CCOc1ccc(-c2csc(NC(=O)CSCC(=O)O)n2)c2ccccc12,-10.9,-0.3,i,6.5,-3.6,-0.7,0.9,x
O=[N+]([O-])c1cccc(COc2ncnc3cc([N+](=O)[O-])ccc23)c1,12.2,23.5,i,0.4,23.0,1.6,-3.8,-8.4
CCN1C(=S)SC(=O)C1=C1C=C(C)N(Cc2ccco2)C(C)=C1,1.5,13.6,i,x,-14.2,-107.7,-1.6,62.4
Cc1ccc(N(C)S(=O)(=O)c2cccc(C(=O)Nc3ccc(C)cn3)c2)cc1,x,x,i,23.6,-5.0,5.1,-11.1,-0.7
COc1ccc(/C=C(/C#N)C(=O)Nc2ccc(O)cc2)cc1C(=O)O,-0.1,-5.3,i,-20.4,-13.3,4.7,5.6,x
COc1cc(CCCN2C(N)=NC[C@H]2Cc2ccc(O)cc2)cc(OC)c1OC,1.0,4.8,i,-2.7,-5.7,-4.1,2.9,-20.1
Cc1ccc(SCC(=O)OCC(=O)Nc2ccc3[nH]c(=O)[nH]c3c2)cc1C,x,x,i,-3.4,-5.0,3.5,-1.2,-8.1
CN1CCN(C(=O)c2ccccc2[N+](=O)[O-])CC1,-2.3,-11.9,i,-29.9,-7.8,-5.4,3.3,-9.3
CCCCNC(=O)C1CCN(C(=O)Nc2ccc(C)cc2)CC1,3.6,-5.6,i,-2.8,4.1,3.9,5.4,-18.0
CCc1ccccc1N(CC(=O)OC)S(C)(=O)=O,-6.0,8.5,i,-37.0,2.8,4.5,4.7,7.6
O=C(COC(=O)COc1ccccc1)NCc1ccccc1,-1.3,-6.4,i,5.9,-6.8,-0.7,3.2,x
Cc1ccc(C(=O)Nc2nc(=O)n(C)s2)cc1,0.9,-6.4,i,-101.5,0.9,3.5,6.8,-2.8
Cc1ccc(-c2nnc(SCC(=O)Nc3ccc4c(c3)oc3ccccc34)n2C)c(Cl)c1,-0.3,-4.0,i,48.0,27.1,-3.9,-19.0,0.4
Cc1cc(C(=O)N(C)CC2CCCN(CCc3ccc(F)cc3)C2)c(C)o1 (stereo unspecified),-5.7,3.0,i,-1.1,12.7,-2.3,4.7,-15.3
COc1ccc(S(=O)(=O)Nc2ccc3c(c2)C(=O)N([C@@H](C)CO)C[C@@H](C)[C@H](CN(C)C(=O)CCCN(C)C)OCCCC[C@H](C)O3)cc1,x,x,x,1.8,x,-2.0,4.0,7.1&33.7
COc1cccc(N(C(=O)c2csnn2)C(C(=O)NC2CCCC2)c2ccccc2)c1 (stereo unspecified),2.5,-8.7,i,7.3,-8.2,-1.4,0.5,-4.5
COc1ccc(-c2nc(CSCC(=O)N3CCN(C4CCCCC4)CC3)c(C)o2)cc1OC,x,x,i,1.0,5.8,-1.8,-1.0,-7.5
COC(=O)c1c(C)oc2ccc(OC(=O)c3cccs3)cc12,-2.7,0.2,i,x,-4.0,1.1,4.4,-26.7
CCC1CCCCN1CCCNC(=O)c1ccc2nc(N3CCC(C)CC3)sc2c1 (stereo unspecified),1.8,0.5,i,-52.7,22.2,7.2,-0.7,-35.0
COc1ccc(OCCC(=O)Nc2cc3c(cc2C(=O)O)OCCCO3)cc1,x,x,x,-0.5,x,-1.7,-3.0,-16.0
Cc1ccccc1NS(=O)(=O)c1ccc(C)c(C(=O)N2CCOCC2)c1,-2.5,0.0,i,15.5,-3.3,1.4,1.8,-15.1
COc1ccc(-c2cc3ncnc(Cl)c3s2)cc1,8.2,-13.5,i,-59.8,33.6,4.2,7.6,-24.6
CC(C)OCCCNC(=S)NNC(=O)c1ccc(Cl)c(Cl)c1,4.3,0.8,i,-6.7,3.2,0.0,-1.2,x
CC(=O)NC(CC(=O)O)c1ccc([N+](=O)[O-])cc1 (stereo unspecified),-10.3,-0.3,i,-10.0,-12.8,1.2,1.3,x
OC(COCc1ccc(Cl)cc1)CN1CCN(CC(O)COCc2ccc(Cl)cc2)CC1 (stereo unspecified),7.3,0.3,i,28.0,3.2,-8.4,-15.3,-0.8
COc1cc(/C=C/C(=O)OCC(=O)c2c[nH]c3ccccc23)ccc1OC(F)F,20.0,-6.3,i,-25.6,5.2,-2.2,0.9,x
O=C(CCN1CCN(Cc2ccccc2)CC1)NNC(=O)Cc1ccc(Cl)c(Cl)c1,8.8,-4.3,i,-0.5,-7.7,2.8,2.2,x
O=C(Nc1ccccc1)C1CCCN1S(=O)(=O)c1ccc(Br)cc1 (stereo unspecified),-0.3,0.1,i,34.8,-5.9,0.0,-1.3,-13.2
COC(=O)[C@@H]1C[C@@]2(O)[C@H](O)[C@H](O)[C@H](O)C[C@H]2N1Cc1ccc(C)s1,1.7,2.0,i,-40.6,-3.5,0.9,3.2,-9.5
Cc1ccc(CNCCC2=CCCCC2)cc1,-4.2,-7.6,i,-20.6,-11.5,-0.1,-0.2,-19.3
CN(C)CCNc1ncnc2c1ncn2[C@H]1CN(Cc2ccccc2)C[C@@H](CO)O1,x,x,x,-8.2,x,1.5,3.8,-14.2
COc1ccc(Cl)cc1NS(=O)(=O)c1cn(C)nc1C,-5.1,-5.0,i,9.0,6.4,-1.1,2.8,-1.4
CC(=O)Nc1ccc(CN2C(=O)C(Cc3ccccc3)ON=C2c2ncccc2C)cc1 (stereo unspecified),x,x,x,-121.2,x,4.2,0.3,-5.1
COc1ccc(N=C2SC(CC(=O)Nc3ccccc3)C(=O)N2Cc2ccco2)cc1 (stereo unspecified),-6.5,-11.9,i,-109.6,x,0.4,-6.7,-10.8
O=C(O)C1C2C=CC(C2)C1C(=O)Nc1ccccc1Br (stereo unspecified),-5.7,5.8,i,6.1,-6.7,-3.7,-1.3,-11.6
O=C(O)c1c2c(nc3ccccc13)-c1ccccc1CC2,4.7,-6.4,i,-8.5,x,-0.1,6.3,x
O=C(Nc1ccccc1O)c1cccc(S(=O)(=O)Nc2ccccc2O)c1,x,x,i,-6.4,13.3,5.9,-4.6,x
COC(=O)c1ccc(N2C(=O)CC(SCCN)C2=O)cc1 (stereo unspecified),14.3,0.3,i,x,-12.3,-0.2,4.0,-20.4
Cc1ccc(-n2ncc3c(Nc4cccc(C(=O)O)c4)ncnc32)cc1,17.0,0.1,i,x,-1.5,-1.7,-0.8,-17.5
O=C(CN(c1ccc(F)cc1)S(=O)(=O)c1ccccc1)NC1CC2CCC1C2 (stereo unspecified),2.3,3.8,i,-3.6,5.6,5.9,-0.3,-0.1
COc1ccc2c(C(=O)NCCCCO)c(-c3ccc(S(C)(=O)=O)cc3)sc2c1,x,x,x,12.9,10.9,4.3,7.1,3.8
O=P(Cc1cc[n+]([O-])cc1)(c1ccccc1)c1ccccc1,6.3,6.7,i,x,-4.0,5.1,8.3,-6.3
CN1CC=C2C(C#N)=C(N)C(C#N)(C#N)[C@H](c3ccoc3)[C@H]2C1,u,u,i,x,-15.8,-100.2,15.9,x
CC(C)(C)c1cc(C(=O)NN)n(Cc2ccc(Cl)cc2Cl)n1,-5.1,-2.2,i,5.5,33.6,-6.9,-3.6,-13.1
COc1ccc(/C(O)=C2/C(=O)C(=O)N(CCCN(C)C)C2c2ccc(C)o2)cc1Cl (stereo unspecified),-1.8,-20.3,i,x,x,x,x,x
CC(CNC(=O)c1cc(COc2c(F)cccc2F)on1)c1ccccc1 (stereo unspecified),-3.9,-12.7,i,x,-1.7,-3.6,-0.9,-13.0
COc1ccc(CC(=O)Nc2ccc(-c3cn4ccc(C)cc4n3)cc2)cc1,3.5,-3.0,i,x,2.6,2.3,-9.4,x
S=C(NCC1CCCO1)NC1CC1 (stereo unspecified),5.9,-7.1,i,26.5,15.4,2.9,3.7,-27.6
O=C(Nc1ccc2c(c1)OCCO2)C1CCCN1S(=O)(=O)c1cccc2cccnc12 (stereo unspecified),-5.8,-0.4,i,-23.6,-7.0,-0.4,2.9,-2.3

# (next part)
Molecule,PABP polyA inh,eIF4H FP inh,Rce1 inh,Env fusion inh,CSC inhib,MT1-MMP act inh,MT1-MMP act inh RFP,Yeast UUG start
COc1ccc(C)cc1N1CC(C(=O)OCc2nc(N)nc(Nc3ccccc3C)n2)CC1=O (stereo unspecified),x,x,x,-10.7,x,1.6,1.0,-12.1
COCCCNS(=O)(=O)c1ccc(SC)cc1,6.9,7.3,i,-55.8,-7.6,0.7,1.5,x
NC(=O)CC(NC(=O)Cc1ccc(Br)cc1)c1ccc(N2CCCCCCC2)c([N+](=O)[O-])c1 (stereo unspecified),-2.5,12.2,i,u,-6.4,9.0,3.5,-6.7
CN1CCCN(S(=O)(=O)c2ccc(Cl)c(Cl)c2)CC1,-0.3,-4.0,i,-1.5,x,-1.3,1.5,x
S=c1[nH]nc(-c2ccc3ccccc3n2)n1-c1ccc2ncccc2c1,14.3,46.1,i,-7.7,-5.3,-4.1,-3.9,x
CCN(CCCNC(=O)CN1C(=O)COc2ccc(S(=O)(=O)N3CCC(C)CC3)cc21)Cc1ccccc1,-1.2,0.1,i,25.6,-10.5,-7.4,0.0,4.9
COC(=O)C1CN(C(=O)COc2ccccc2)c2ccccc2O1 (stereo unspecified),8.0,18.6,i,8.5,-9.2,3.2,5.5,-8.3
CCOC(=O)C1(CC2CC2)CCN(S(=O)(=O)C[C@]23CC[C@H](CC2=O)C3(C)C)CC1,4.2,-3.2,i,15.6,1.0,1.5,1.5,x
Fc1ccc(CSc2nnc(-c3ccncc3)o2)cc1,-17.5,-0.9,i,37.2,-8.2,-10.5,-10.6,-26.8
CCCCN(C(C)=O)c1c(CC)nc2ccc(C(=O)NCCOc3ccc(OC)cc3)cn12,x,x,x,-4.2,x,-1.5,-3.2,0.6
CN(CC(=O)Nc1ccc(F)cc1)C(=O)CCc1ccccc1,8.2,27.6,i,-12.7,-1.5,-0.4,-1.7,-10.9
CN(C)N(C)C(=O)C(O)(c1ccccc1)c1ccccc1,-1.5,-10.1,i,2.4,-9.9,-2.8,1.8,x

# Entries of single compounds from above.
# `CN1CCCN(S(=O)(=O)c2ccc(Cl)c(Cl)c2)CC1` in the list: PABP polyA inh = -0.3; eIF4H FP inh = -4.0; Rce1 inh = i; Env fusion inh = -1.5; CSC inhib = x; MT1-MMP act inh = -1.3; MT1-MMP act inh RFP = 1.5; Yeast UUG start = x
# `COCCCNS(=O)(=O)c1ccc(SC)cc1` in the list: PABP polyA inh = 6.9; eIF4H FP inh = 7.3; Rce1 inh = i; Env fusion inh = -55.8; CSC inhib = -7.6; MT1-MMP act inh = 0.7; MT1-MMP act inh RFP = 1.5; Yeast UUG start = x

# Assay outcomes: PubChem, several laboratories
